# TRPML1 inh: qHTS for Inhibitors of the Human Mucolipin Transient Receptor Potential 1 (TRPML1); Mucolipin-1 (Homo sapiens), Q9GZU1; TRPML1-inducible cells, Ca2+ dye fluorescence, FDSS; hits give low values; inhibition of EC80 agonist-evoked calcium signal; activity change, negative = inhibition, % (no concentration beside the values); 390,000 tested, 0.02% active; in the data active means activity change below about -50%; inconclusive means about -30% to -50%; inactive means above about -30%;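 further: stimulus is agonist 54-4 at its EC80 concentration; on the % scale 0 is the no-effect control and ±100 the full control effect; compound concentration not given in the record; the text of the record puts the active cut at -80%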
# Target sequence (Q9GZU1 whole entry, looked up): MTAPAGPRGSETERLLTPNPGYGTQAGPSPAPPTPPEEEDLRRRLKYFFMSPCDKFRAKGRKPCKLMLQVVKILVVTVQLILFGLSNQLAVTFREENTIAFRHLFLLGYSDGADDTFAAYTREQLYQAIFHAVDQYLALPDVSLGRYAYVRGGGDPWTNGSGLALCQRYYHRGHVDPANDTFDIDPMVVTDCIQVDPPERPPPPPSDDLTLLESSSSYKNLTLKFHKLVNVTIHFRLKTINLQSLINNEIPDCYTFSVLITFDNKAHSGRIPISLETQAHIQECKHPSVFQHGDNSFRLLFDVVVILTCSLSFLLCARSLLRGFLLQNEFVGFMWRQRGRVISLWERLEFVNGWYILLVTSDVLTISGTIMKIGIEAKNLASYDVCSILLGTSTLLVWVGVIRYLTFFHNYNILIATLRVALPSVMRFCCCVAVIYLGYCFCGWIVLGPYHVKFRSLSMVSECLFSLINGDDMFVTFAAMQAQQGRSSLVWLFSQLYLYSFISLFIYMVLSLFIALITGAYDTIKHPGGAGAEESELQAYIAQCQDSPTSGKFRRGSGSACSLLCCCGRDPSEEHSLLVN
#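 Tet-induced TRPML1-DL cells loaded with Ca8 no-wash calcium dye were read kinetically on FDSS. Compound addition was followed by EC80 agonist 54-4 (4 uM final); inhibition was read over 110 s.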
# Menin MLL FP FL: qHTS Assay for Inhibitors Targeting the Menin-MLL Interaction in MLL Related Leukemias: Competition With Fluorescein Labeled MLL-derived Peptide; Fluorescence polarization, fluorescein-MLL peptide displacement from menin; FP activity change, % at 61.4 µM; 290,000 tested, under 10 active; AID 1766, 2009; inconclusive = falling polarisation curve, or a change in total fluorescence; inactive = total fluorescence flat and polarisation flat or rising; no compound was filed as active; the % refers to the polarisation; negative = inhibition;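 further: % of control where 0% means no effect; inhibitors lower the polarisation; unlabelled MLL peptide was the positive control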
# ClpP mod: qHTS Assay for Activators of ClpP | ATP-dependent Clp protease proteolytic subunit (Bacillus subtilis (strain 168)), P80244 | AID 651965, 2013 | purified B. subtilis ClpP, FRET peptide cleavage, 20 min | 340,000 tested, 1.9% active | Potency, µM (highest dose often 57.5 µM), for the others: at the highest dose activity change, negative = active; active = well fitted falling curve with a large enough effect; inconclusive = small, poorly fitted or top-dose-only effect; inactive = no such curve, though single readings can be large or run the other way; further: potency means the concentration at half of the fitted maximal effect; the source files actives as falling curves though it sought activators and does not explain the sign; nearly all actives have a fitted effect of over 65% in size; many hits overshoot -100%
# Target sequence (P80244 whole entry, looked up): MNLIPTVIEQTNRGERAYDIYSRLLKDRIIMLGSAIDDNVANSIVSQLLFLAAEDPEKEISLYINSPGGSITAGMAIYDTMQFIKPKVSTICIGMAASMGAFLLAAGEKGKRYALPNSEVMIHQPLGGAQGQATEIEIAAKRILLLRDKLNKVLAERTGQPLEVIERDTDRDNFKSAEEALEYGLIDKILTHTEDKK
#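 Purified B. subtilis ClpP, 10 microg/mL final in Tris/HCl pH8 with KCl, BSA, glycerol and Tween-20, cleaved an Abz/nitrotyrosine-quenched decapeptide. Fluorescence (ex 320, em 430) was read at 0 and 20 min at room temperature. Delta was normalized to 5.8 microM ADEP and DMSO/no-enzyme controls.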
# gsp ag: qHTS for Agonist of gsp, the Etiologic Mutation Responsible for Fibrous Dysplasia/McCune-Albright Syndrome: qHTS. gsp mutant cells, cAMP HTRF, 30 min; control for the full effect not named in the record. Potency, µM (highest dose often 76.9 µM), for inactives: at the top dose activation (cAMP increase), usual class: activators. 340,000 tested, 0.13% active. AID 624287, 2012; active = well fitted activation curve with a large enough effect; inconclusive = small, poorly fitted or top-dose-only effect, or another doubt; inactive = no such curve, though single readings can be large or run the other way; cell line not stated here;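 further: phosphodiesterase inhibitor Ro 20-1724 added with compounds to block cAMP breakdown; potency means the concentration at half of the fitted maximal effect; nearly all actives have a fitted effect of over 60% in size; about a fifth of the inactives were tested at one dose only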
#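 Cells in DMEM/10% FBS with G418 were pretreated with compounds in DMSO plus […] (300 uM stock) for 30 min at 37C. cAMP was measured by HTRF (cAMP-d2 plus anti-cAMP antibody-K) after 30 min at room temperature.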
# gsp antag: qHTS for Antagonists of gsp, the Etiologic Mutation Responsible for Fibrous Dysplasia/McCune-Albright Syndrome: qHTS | gsp-mutant cells, cAMP HTRF, 30 min; control for the full effect not named in the record | Potency, µM (doses to about 76.9 µM), without a hit: at the highest dose activity change, negative = inhibition, usual class: inhibitors | 340,000 tested, 0.4% active | AID 624288, 2012; active = falling curve of any shape with a large fitted effect; inconclusive = falling curve, mostly with a smaller effect; inactive = flat or rising curve; cell line not stated here;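 further: intracellular cAMP measured with PDE inhibitor Ro 20-1724 present during compound exposure; potency means the concentration at half of the fitted maximal effect; on the % scale 0 is the no-effect control and ±100 the full control effect; nearly all actives have a fitted effect of over 65% in size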
#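 G418-selected cells were plated in DMEM/10% FBS for 16-24 h at 37C, then treated with compounds plus the PDE inhibitor […] (300 uM solution added) for 30 min at 37C. Intracellular cAMP was measured by HTRF after 30 min lysis at room temperature.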
# TRPML1 ag: qHTS for Agonists of the Human Mucolipin Transient Receptor Potential 1 (TRPML1); TRPML1-expressing cells, Ca2+ dye fluorescence, FDSS; host cell line not named in the record; reference of the full effect not given here; Mucolipin-1 (Homo sapiens), Q9GZU1; 410,000 tested, 0.12% active; activation, % (concentration not given with the values); in the data active = activation above about 50%; inconclusive = about 30% to 50%; inactive = below about 30%; further: 0% is about no effect; the text of the record puts the active cut at 80%
#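 Cells: TRPML1-DL, 1X Tet inducer, ~16 h at 37 degrees C/5% CO2. Dye: ABD Ca8 no-wash + quencher, 45-90 min RT. Read: 10 s baseline, compound add, 110 s agonist phase; 54-4 EC80 (4uM final), 110 s antagonist phase.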
# The depositor's hits bear a star; ? = inconclusive; . = no result given; & = joins results of further samples; [ ] = another dose, or the depositor's remark.
nr	mol	TRPML1 inh	Menin MLL FP FL	ClpP mod	gsp ag	gsp antag	TRPML1 ag
1	CN(C)C(=O)[C@H]1C[C@H]1[C@@H](O)[C@H](CO)NC(=O)[C@H](COCc1ccccc1)NC(=O)OC(C)(C)C	-6	3.1	1.2%	-5%	11%	-0.7
2	Cc1ccc(NC(=O)N2CCCCCC2)cc1C	4	.	-0.1%	-4%	5%	0.2
3	CS(=O)(=O)c1ccc(C(=O)OCC(=O)N2CCCc3ccccc32)cc1	5	.	-0.1%	22%[15.4 µM]	8%	-0.4
4	Cc1ccc(-n2nnnc2SCC(=O)Nc2ccccc2-c2ccccc2)cc1C	16	-2.8	-1.8%	5%	-27%	0.0
5	O=C(Nc1ccc(Cl)cc1)c1cccnc1N1CCCCC1	6	0.1	-2.9%	25%	?	-0.4
6	CCCCCCC(=O)N/N=C(\C)Cc1ccccc1	2	3.6	-1.7%	?	3%	1.3
7	COc1ccc(CCn2cc3c(c2-c2ccc(Br)cc2)c(=O)n(C)c(=O)n3C)cc1OC	17	.	-16%	.	.	-1.2
8	Oc1ccc(Nc2nc(-c3ccc(O)cc3)cs2)cc1	9	1.3	-3.0%	?	?	2.0
9	Cc1ccc(C)c(S(=O)(=O)N/N=C/c2ccc(C(=O)O)cc2)c1	-8	6.6	?	3%[15.4 µM]	1%	0.5
10	Cc1ccc(NC(=O)c2cc(-c3ccc(Br)s3)nc3ccccc23)cc1F	4	.	-6.2%	.	.	0.0
11	O=C(Nc1cccc(C(=O)O)c1)Nc1cccc2ccccc12	-22	-0.5	-19%	?	2%	0.3
12	CC(C)Oc1ccc(CNC(=O)Cn2c(=O)c3cccn3c3cccnc32)cc1	36	.	3.7%	27%	-17%	-1.5
13	Cc1cc(C(F)(F)F)c2c(C)nn(-c3ccccc3)c2n1	1	.	28µM*	11%	-1%	0.1
14	CC1=C(C(=O)OC2CCCCC2)C(c2cccc([N+](=O)[O-])c2)NC(=O)N1 (configuration not stated)	24	-2.6	0.4%	0%	-14%	2.8
15	Cc1ccc2c(=O)cc(C(=O)Nc3ccc(S(=O)(=O)N4CCCCC4)cc3)oc2c1	10	.	-5.4%	.	.	-0.5
16	CC1CN(C(=O)N2CCC(C(=O)NCc3cccs3)CC2)c2ccccc2O1 (configuration not stated)	4	.	1.3%	.	.	-0.8
17	Cc1cc(C)n(CC(=O)Nc2ccc(F)c(F)c2)c(=O)c1C#N	6	.	-17%	.	.	-0.1
18	CCS(=O)(=O)c1ccc2c(c1)N(S(=O)(=O)c1ccccc1)CC(C(=O)O)O2 (configuration not stated)	3	1.0	-1.4%	16%	17%	-0.1
19	COCc1cccc(N2C(=O)CC(C3C=C(C)C4C(=O)N(c5cccc(COC)c5)C(=O)C4C3)C2=O)c1 (configuration not stated)	-10	-6.3	.	-9%[15.4 µM]	-14%	0.0
20	Oc1ccccc1CNc1cnc2ccccc2c1	-14	-0.5	28µM*	14%	?	0.1
21	c1ccc2c(CCN3CCNC[C@H]3Cc3cccc4ccccc34)cccc2c1	18	.	-3.1%	.	11%	0.3
22	Cc1ccc(C)c(NC(=O)C2CCN(C(=O)c3cccs3)CC2)c1	4	3.7	.	-5%[15.4 µM]	6%	-0.2
23	Nc1ccn(CC(=O)NCc2ccccn2)c(=O)n1	8	.	1.7%	-17%	11%	0.0
24	C/C(=N\NC(=O)c1ccc(Cn2cc([N+](=O)[O-])cn2)o1)c1cccc(NC(=O)c2cccnc2)c1	-1	1.4	1.2%	?	3%	-0.7
25	COc1cc(C2=NOC(C(=O)NCc3cccs3)C2)cc(OC)c1OC (configuration not stated)	8	1.7	-3.1%	-5%	6%	0.2
26	Cc1ccc(Nc2nc(C)cc(C)c2C#N)c(C)c1	6	.	-2.5%	-2%	.	0.2
27	NS(=O)(=O)c1ccc(S(=O)(=O)NCCc2ccccc2)cc1	7	4.1	-0.3%	-32%	5%	-0.8
28	CCOc1ccc(-n2nnc3c(=O)n(CC(=O)c4ccccc4)cnc32)cc1	-3	0.1	-5.4%	-52%[inhibitor]	5%	0.8
29	Cc1csc(=O)n1CCC(=O)N(C)Cc1c(F)cccc1Cl	-6	.	.	-2%	-6%	-0.6
30	C/C(=N\NC(=O)Cn1nc(C)cc1C)c1ccc([N+](=O)[O-])cc1	-8	5.8	1.1%	6%	7%	-0.6
31	COc1cc(-c2cc(-c3ccc(O)cc3)nc(N)c2C#N)ccc1O	29	1.9	.	23%	8%	2.3
32	COc1cc(/C=C/C(=O)N2CCOCC2)ccc1OCc1ccccc1	-6	2.5	-25%	-19%	7%	1.7
33	CC(=O)Oc1ccc(C(=O)Nc2ccc3c(c2)C(=O)N(CCC(=O)O)C3=O)cc1	6	-0.1	28µM*	9%	0%	4.0
34	O=[N+]([O-])c1cc(S(=O)(=O)NCCN2CCOCC2)ccc1Cl	4	-3.1	.	-1%	-6%	0.7
35	CCCc1nn2c(=O)cc(COC(=O)c3cccs3)nc2s1	-6	.	-3.4%	.	.	-0.5
36	Cc1cc(OC(=O)c2cc(F)c(F)cc2Cl)nc(C)n1	5	-0.4	-0.7%	-21%	3%	0.8
37	COc1cc(-c2nc3cnccn3c2Nc2ccccc2)ccc1O	-10	?	?	6%	-5%	-0.4
38	CC(Oc1ccc(Cl)cc1Cl)C(=O)NNC(=O)[C@@H]1CCCC[C@@H]1C(=O)O (some centres not stated)	22	.	-0.7%	-9%	6%	-0.6
39	COc1cc(/C=N/NS(=O)(=O)c2ccccc2)ccc1OS(=O)(=O)c1ccc(C)cc1	-18	0.7	-0.7%	10%	12%	1.0
40	CC(=O)c1cccc(N(C(=O)c2ccco2)C(C(=O)NC2CCCC2)c2cccs2)c1 (configuration not stated)	2	0.0	.	-2%	3%	-0.7
41	CCOC(=O)c1c(S(=O)(=O)N2CCCC(C(=O)N3CCN(c4cc(C)ccc4C)CC3)C2)c(C)n(C)c1C (configuration not stated)	8	.	0.6%	.	.	-0.6
42	CCCCNC(=O)c1ccc2c(=O)n(Cc3ccc(OC)cc3)c(=O)[nH]c2c1	7	.	-0.5%	.	.	0.3
43	Cc1nc2ccccc2c(=O)n1-c1ccc(NS(=O)(=O)c2ccccc2)cc1	-5	.	-1.2%	6%	-9%	-0.7
44	CCOC(=O)c1c(C)[nH]c(C)c1C(=O)Cn1nnc(-c2ccccc2C)n1	-8	-1.3	-2.2%	?	-8%	1.7
45	Cc1ccc(S(=O)(=O)N(C)C)cc1NC(=O)COC(=O)CSc1ccccc1	12	.	-3.9%	1%	1%	0.4
46	COc1ccc(NC(=O)CSCC(=O)Nc2ccc(C)c(S(=O)(=O)N3CCCCCC3)c2)cc1	1	.	-0.7%	23%	-19%	1.5
47	CN1CCN(c2cc(N3CCc4ccccc4C3)c(F)cc2[N+](=O)[O-])CC1	-1	-4.4	0.4%	-7%	26%	-0.4
48	Cc1ccc(-c2cc(C(F)(F)F)c(C#N)c(SCC(=O)O)n2)cc1	2&-2	-0.3	-23%	25%[15.4 µM]	-26%	-1.3&0.9
49	Cc1ccc2c(Sc3ccc(Cl)cc3)c(C(=O)N3CCC(C)CC3)[nH]c2c1	8	.	-3.9%	.	.	0.2
50	CC(C)C[C@H](N)c1cn([C@@H](CCCCN)C(=O)N2CCNCC2)nn1	11	-4.7	-1.7%	.	-5%	0.0
51	CCOCCCN(C(=O)c1snc(C(N)=O)c1N)C(C(=O)NC1CCCC1)c1ccc(OC)cc1 (configuration not stated)	4	-0.7	.	2%	-1%	-0.6
52	CCOC(=O)C1=C(CN2CCCCC2)NC(=O)NC1c1cc(C)ccc1C (configuration not stated)	-9&16	-0.5	-0.9%&0.0%	-32%[inhibitor]	-5%	-0.4&1.2
53	O=C(CCN1C(=O)/C(=C\c2cccc(Br)c2)SC1=S)N1CCOCC1	4	-1.7	-0.4%	-59%[inhibitor]	-5%	-0.1
54	CCOc1ccc(C(=O)O/N=C(\N)c2ccccn2)cc1	.	-5.7	0.0%	7%	-3%	.
55	O=C1N/C(=C/c2ccc(N3CCOCC3)o2)C(=O)N1c1cccc(Cl)c1	-19	?	-1.3%	?	?	0.9
56	CCc1noc(C)c1C(=O)Nc1cc(Cl)ccc1N1CCCC1	-18	.	3.5%	8%[15.4 µM]	-3%	0.4
57	Cc1nn2c(N3CCCC3)cc(C(C)C)nc2c1-c1ccccc1	-7	1.8	35µM*	?	-10%	1.4
58	COc1ccc(NC(=O)Nc2ccccc2)cc1S(=O)(=O)N1CCCCC1	14	-0.4	.	18%[15.4 µM]	.	0.3
59	CCOc1ccccc1NC(=O)Cn1c(=O)n(-c2ccc(C)cc2)c(=O)c2c1cnn2C	-11	.	2.1%	.	.	-0.5
60	CCc1nc2cccnc2n1-c1ccc(CC(=O)NCCOC)cc1	-20	-12	-12%	?	3%	0.4

# Carrying on:
nr	mol	TRPML1 inh	Menin MLL FP FL	ClpP mod	gsp ag	gsp antag	TRPML1 ag
61	CN(C(=O)CSc1nc2ccc(NC(=O)c3ccc(F)cc3)cc2s1)c1ccccc1	-6	.	?	.	.	2.2
62	COc1ccc(C2(C(=O)NCc3ccccc3Cl)CCOCC2)cc1OC	-21	0.0	-1.4%	-26%	6%	1.9
63	CC(=O)c1ccc(S(=O)(=O)Nc2cccc(-c3ccc(N4CCCCC4)nn3)c2)cc1	-14	.	-2.3%	.	.	0.2
64	Cc1noc(C)c1COC(=O)c1cccnc1SCC(=O)Nc1ccc2c(c1)OCO2	0	-0.9	0.2%	?	-15%	-0.2
65	CCOc1ccccc1N1CCN(Cc2cn[nH]c2-c2ccc(F)cc2)CC1	15	3.5	.	-16%	4%	2.6
66	COc1cc2[nH]c3c(OC)ncnc3c2cc1OC	6	-0.9	0.6%	16%[15.4 µM]	21%	-1.4
67	Cc1ccc(CN2CCN(Cc3cc(=O)c4ccccc4[nH]3)CC2CCO)o1 (configuration not stated)	8	3.6	-6.8%	-16%	4%	0.3
68	COc1cc(/C=N/NC(=O)c2[nH]nc3c2CCc2ccccc2-3)ccc1O	-1	-19	-5.2%	-15%	-3%	1.9
